High-throughput results: PubChem, several laboratories
A340 absorber – compounds absorbing at 340 nm. fold change at 10 µM. compound absorbance at 340 nm, fold over control. 65,000 tested, under 10 active;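 active = at 10 µM dose, initial 340 nm absorbance at least 2 fold that of control wells; inactive = change under 2 fold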;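 also: initial absorbance extrapolated from kinetic A340 decline of NADH oxidation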
MMP13 inh – blocks human MMP13 activity. AID 570. 0.07% of 65,000 active. inhibition, % at 4 µM. MMP-13 fTHP FRET cleavage, Mca fluorescence;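 active = inhibition above the mean of compound-free control plate wells plus 3 SD, cut at about 14% in these data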;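 also: 0% = DMSO wells and 100% = wells with reference MMP-13 inhibitor after basal subtraction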
NADH coupling – blocks coupling enzymes of NAD/NADH assays. IC50, µM (titrated, usually from 10 µM), inactives show at the top dose inhibition. coupled PK/LDH NADH assays, four targets. 0.02% of 65,000 active;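 active = single-dose screening hits from any of four coupled enzyme assays that gave an IC50 when retested across doses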;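 also: the DPM-DC format reads NADH fluorescence rather than 340 nm absorbance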
HEK293 NFkB inh – lowers PMA/ionomycin-induced NF-kB signal in HEK293 cells; inhibition, % at 3 µM; 0.21% of 62,000 active; HEK-293 NF-kB luciferase reporter, luminescence;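 active = inhibition above the mean of all tested compounds plus 3 SD, cut at about 40% in these data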;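 also: 0% = stimulated DMSO wells and 100% = 10 µM reference inhibitor 5653914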
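Timing: 1 h pretreatment, 16 h stimulation, 37 °C; system: HEK-293 cells with stable firefly luciferase reporter driven by four HIV NF-kB elements; doses: 3 µM once, 0.30% DMSO; measured by: luciferase luminescence; control set: DMSO and 10 µM reference inhibitor; repeats: single test; reagent: PMA plus ionomycin mix as NF-kB-activating stimulus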
tolC growth inh – growth inhibitors of E. coli BW25113 tolC mutant; OD615; growth inhibition, % at 10 µM (by protocol); 2.2% of 65,000 active;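 active = growth inhibition at or above a cutoff equal to the mean over every tested compound plus 3 SD, cut at about 60% in these data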;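 also: growth measured after 20 h incubation at 37 °C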
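Assay system: tolC-deleted E. coli BW25113. Medium: kanamycin-containing LB broth (50 µg/mL). Dosing: 10 µM final, single dose. Timing: bacterial growth with compound for 20 h at 37 °C. Detection: A615 absorbance measurement. Read-out basis: growth inhibition in percent.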
Active calls of the source: *; · = not tested or not shown; & = joins results of further samples; [ ] = remark or other dose. These rows are one share of the data (hit frequency here may not be typical).

The line under a structure holds: A340 absorber | MMP13 inh | NADH coupling | HEK293 NFkB inh | tolC growth inh
Cc1sc2ncn(CC(=O)NCCCC(=O)N3CCN(c4ncccn4)CC3)c(=O)c2c1C
  0.99 | 0.5 | 4.0% | 8.2 | -3.9
COc1ccccc1NC(=O)c1ccc(Cl)c(S(=O)(=O)N2CCOCC2)c1
  1.08 | -7.0 | 0.0% | 19.8 | 3.7
O=C(O)CN1C(=O)CC(Cc2ccccc2)C1=O (stereo not drawn)
  1.02 | -4.4 | 1.0% | 5.5 | -17.1
O=C(NCc1ccccc1)c1ccc(COCC(F)(F)F)o1
  1.03 | 8.7 | 1.0% | 1.3 | 6.1
COc1cccc(/C=N\n2c(C)nnc2C)c1OC
  1.03 | -6.7 | 16.0% | 21.7 | -11.6
O=C(CC1Oc2ccccc2NC1=O)NC1CCCC1 (stereo not drawn)
  1.04 | 4.5 | 2.0% | 20.1 | -7.4
O=C(O)c1ccc(NS(=O)(=O)c2ccc3c(c2)OCCO3)cc1
  0.99 | 0.9 | 4.0% | 12.2 | -9.0
COCCn1nnnc1C(c1cc2cccc(C)c2[nH]c1=O)N1CCN(c2ccccc2F)CC1 (stereo not drawn)
  1.05 | -5.7 | 6.0% | 1.9 | 3.4
Cc1ccc(CC2CC(=O)N(Cc3ccco3)C2=O)cc1 (stereo not drawn)
  1.06 | 1.9 | 2.0% | 15.4 | -2.9
COc1cc(OC)cc(C(=O)N2CCC(n3c(C)nc4cc(F)ccc43)CC2)c1
  1.01 | 3.9 | 4.0% | 15.0 | -7.0

Following part
The line under a structure holds: A340 absorber | MMP13 inh | NADH coupling | HEK293 NFkB inh | tolC growth inh
Cc1ccc(OCc2nnc(SCC(=O)Nc3ccc4c(c3)OCO4)n2C)cc1
  0.99 | -5.0 | 3.0% | 16.6 | 2.3
CC1CCC(NC(=O)CC2Oc3ccccc3NC2=O)CC1 (stereo not drawn)
  1.05 | 0.1 | 5.0% | 10.7 | -12.8
CCOc1ccc(C(=O)C(c2ccccc2)N2CCOCC2)cc1 (stereo not drawn)
  1 | -0.1 | 10.0% | -5.2 | 9.6
CC(NC(=O)OC(C)(C)C)C(=O)N1CCCC1C(=O)NC(Cc1ccccc1)C(N)=O (stereo not drawn)
  0.96 | 4.2 | 4.0% | 9.5 | -10.0
N#Cc1cc2c(nc1SCC(=O)Nc1nccs1)CCCCC2
  1 | -65.7[fluorescence artefact?] | 5.0% | -78.1 | -9.9
c1ccc(N(c2ccccc2)c2nc(-n3ccnc3)nc(-n3ccnc3)n2)cc1
  0.96 | 1.2 | 6.0% | 25.3 | 12.3
c1ccc(OCc2nn3c(Cn4cnc5ccccc54)nnc3s2)cc1
  1.01 | 0.9 | 9.0% | 11.7 | 29.2
Cc1ccc2[nH]c(=O)c(-c3noc(C(C)C)n3)cc2c1
  1.08 | -39.4 | 2.0%[fluoresces] | -6.5 | 3.4
Cc1ccc(-n2c(=O)cc(N3CCN(C(=O)c4ccco4)CC3)[nH]c2=O)cc1
  1.04 | 4.8 | 1.0% | 2.2 | -6.3
CN(Cc1nc(-c2ccccn2)no1)S(=O)(=O)c1ccccc1
  1.01 | -0.1 | 6.0% | 19.6 | -4.6

4 entries from above, with each value named.
c1ccc(OCc2nn3c(Cn4cnc5ccccc54)nnc3s2)cc1
  A340 absorber: 1.01
  MMP13 inh: 0.9
  NADH coupling: 9.0%
  HEK293 NFkB inh: 11.7
  tolC growth inh: 29.2

Cc1ccc2[nH]c(=O)c(-c3noc(C(C)C)n3)cc2c1
  A340 absorber: 1.08
  MMP13 inh: -39.4
  NADH coupling: 2.0%[fluoresces]
  HEK293 NFkB inh: -6.5
  tolC growth inh: 3.4

Cc1ccc(-n2c(=O)cc(N3CCN(C(=O)c4ccco4)CC3)[nH]c2=O)cc1
  A340 absorber: 1.04
  MMP13 inh: 4.8
  NADH coupling: 1.0%
  HEK293 NFkB inh: 2.2
  tolC growth inh: -6.3

CN(Cc1nc(-c2ccccn2)no1)S(=O)(=O)c1ccccc1
  A340 absorber: 1.01
  MMP13 inh: -0.1
  NADH coupling: 6.0%
  HEK293 NFkB inh: 19.6
  tolC growth inh: -4.6

The results go on.
The line under a structure holds: A340 absorber | MMP13 inh | NADH coupling | HEK293 NFkB inh | tolC growth inh
CN1C(=O)NC(c2ccccc2)C2=C1CN(c1cccc(C(F)(F)F)c1)C2=O (stereo not drawn)
  1.03 | -22.9 | 7.0% | 10.5 | 28.3
O=C(COc1ccccc1)N1CCN(c2nnc(-c3ccccc3)c3ccccc23)CC1
  1.08 | -2.0 | 0.0% | 18.3 | 31.2
COc1ccc(S(=O)(=O)N2CCCCC2)cc1Br
  1.03 | 3.3 | 6.0% | 7.1 | 11.7
c1ccc2[nH]c(NC3=NCCC3)nc2c1
  1 | -8.0 | 4.0% | 15.9 | 1.3
O=C(NCC1COc2ccccc2O1)C1CCN(S(=O)(=O)c2cccc3nsnc23)CC1 (stereo not drawn)
  1 | -3.3 | 8.0% | 8.0 | -11.8
Cc1ccccc1Cn1ccc(NC(=O)CCSc2nc(-c3ccco3)cc(C(F)(F)F)n2)n1
  1.06 | -4.9 | 4.0% | 12.8 | 44.7
COc1c(F)c(F)c(C(=O)Nc2cccc(Cl)c2N2CCOCC2)c(F)c1F
  1.05 | -8.1 | 5.0% | 14.8 | 18.1
c1cncc(-c2nn3c(Cn4nnc5ccccc54)nnc3s2)c1
  0.99 | 1.5 | 5.0% | 13.6 | -1.9
Cn1c(SCC(=O)NC2CC2)nnc1C(F)(F)F
  1.05 | 3.8 | 3.0% | -7.2 | -19.4
COc1ccc(NC(=O)CN2CCN(CC(=O)Nc3cc(OC)cc(OC)c3)CC2)cc1
  0.98 | 9.6 | 2.0% | 12.4 | 4.0

New compounds follow
The line under a structure holds: A340 absorber | MMP13 inh | NADH coupling | HEK293 NFkB inh | tolC growth inh
Cc1noc(C)c1CSc1nnnn1-c1ccc(Cl)cc1
  1.03 | -3.7 | 2.0% | 17.1 | 2.3
CCOc1cc(C)c(Cl)cc1S(=O)(=O)NCc1ccc2c(c1)OCO2
  1.06 | -1.4 | 2.0% | 18.4 | 26.2
O=C(O)c1cccc(NS(=O)(=O)c2cccc3cccnc23)c1
  1.02 | -3.6 | 2.0% | 14.2 | -9.6
Nc1ccc(C(=O)O)c(O)c1
  1&0.98 | 7.5&5.0 | 1.0%&1.0% | · | 11.3&-2.4
CC(C)c1nc(N2CCN(C(=O)c3ccco3)CC2)c2c3c(sc2n1)CCCC3
  1 | -2.5 | 4.0% | 15.9 | 78.7*
CCOC(=O)CCCNC(=O)COC(=O)CCC(=O)c1ccc(F)cc1
  1.01 | -0.4 | 7.0% | 9.2 | -15.6
CC(c1ccccc1)C1CC(=O)N(Cc2ccco2)C1=O (stereo not drawn)
  1.03 | 0.6 | 0.0% | 2.7 | 7.1
O=C(Nc1nnc(-c2ccncc2)s1)C1CCCO1 (stereo not drawn)
  1.15 | -73.1[fluorescence artefact?] | 3.0%[fluoresces] | -4.0 | -13.8
COC(=O)c1ccc2c(c1)N(Cc1nc(-c3cccc(C)c3)oc1C)C(=O)C1CCCN21 (stereo not drawn)
  1.08 | -6.1 | 12.0% | 2.2 | -4.3
COc1ccc(CCNC(=O)CCSc2nc(-c3ccco3)cc(C(F)(F)F)n2)cc1OC
  1.07 | 4.0 | 8.0% | 3.5 | 45.0

Continuation.
The line under a structure holds: A340 absorber | MMP13 inh | NADH coupling | HEK293 NFkB inh | tolC growth inh
COc1ccc(C(=O)Nc2ccc(-c3cn4ccsc4n3)cc2)cc1S(=O)(=O)N1CCOCC1
  1.04 | 4.0 | 5.0% | 16.0 | -5.6
COc1ccccc1-c1noc(CCC(=O)Nc2ccccc2Cl)n1
  1.03 | 2.0 | 5.0% | 11.4 | 12.5
COc1cc(S(=O)(=O)N2CCOCC2)ccc1NC(=O)COC(=O)C12CC3CC(CC(C3)C1)C2
  0.99 | -3.1 | 2.0% | 9.4 | -6.8
O=C1CCCC(O)=C1C=Nc1ccc2c(c1)oc1ccccc12
  1.05 | -5.7 | 4.0% | -5.2 | -5.9
c1coc(Cn2nnnc2CN2CCN(C3CCCCC3)CC2)c1
  1 | -9.3 | 6.0% | 15.0 | -22.3
COc1ccc(S(=O)(=O)N2CCN(C(=O)[C@@H]3CCC(=O)N3C3OC(=O)c4ccccc43)CC2)cc1 (stereo partly drawn)
  1.02 | 0.9 | 6.0% | 8.2 | -24.2
CCC(CC)C(=O)Nc1cc(C)c2c(=O)oc3ccccc3c2n1
  1.06 | -3.4 | 13.0% | -2.1 | 8.6
CCC(=O)Nc1ccc(-c2nn3c(C)nnc3s2)cc1C
  1.04 | -9.6 | 3.0% | 5.9 | -11.3
Cc1cc(=O)n(CC=C(Cl)Cl)c2ccccc12
  1.03 | -4.1 | 3.0% | 11.1 | 9.6
CC(C)Nc1ncnc2c1cnn2-c1ccc(Cl)cc1
  1.04 | -8.4 | 4.0% | -72.3 | 4.6

Limited to A340 absorber (two entries from above):
| smiles | A340 absorber |
| --- | --- |
| COc1ccc(S(=O)(=O)N2CCN(C(=O)[C@@H]3CCC(=O)N3C3OC(=O)c4ccccc43)CC2)cc1 (stereo partly drawn) | 1.02 |
| CCC(CC)C(=O)Nc1cc(C)c2c(=O)oc3ccccc3c2n1 | 1.06 |

(next part)
The line under a structure holds: A340 absorber | MMP13 inh | NADH coupling | HEK293 NFkB inh | tolC growth inh
O=C(c1nc(-c2ccccc2)n(-c2ccccc2)n1)N1CCCCCC1
  0.99 | 3.0 | 5.0% | 18.9 | 6.0
CC1=CC(C)(C)Nc2ccc(OC(=O)c3ccco3)cc21
  1.06 | 4.0 | 4.0% | 45.1* | 14.9
Cc1nc2ccc(NC(=O)N3CCSCC3)cc2s1
  1.01 | 0.3 | 2.0% | 0.8 | -13.0
N#Cc1c(NC(=O)CN2CCCCC2)sc2c1CCC2
  1.14 | 5.9 | 3.0% | 22.2 | -2.2
c1ccc2c(c1)ncn2Cc1nnc2sc(-c3ccncc3)nn12
  1.03 | 1.3 | 1.0% | 13.0 | -9.0
CC(C)CCn1c(=O)c2ccccc2n2c(CN(C)Cc3ccccc3)nnc12
  1.01 | 6.4 | 1.0% | 27.8 | 25.1
Cc1ccc2oc(=O)cc(CN3CCOCC3)c2c1
  1.01 | 1.7 | 6.0% | 24.4 | 1.6
CCOC(=O)C1CCN(Cc2cn[nH]c2-c2ccc(C)cc2)CC1
  1.01 | 1.4 | 4.0% | 0.6 | 91.7*
Cc1nn(C)c(C)c1NC(=O)CCSc1nc(-c2ccco2)cc(C(F)(F)F)n1
  1.06 | 2.2 | 2.0% | 1.9 | 9.8
CC(C1CC1)N(C(=O)c1ccccc1O)c1ccccc1 (stereo not drawn)
  1.05 | 0.0 | 3.0% | 13.5 | 3.3

New compounds follow.
The line under a structure holds: A340 absorber | MMP13 inh | NADH coupling | HEK293 NFkB inh | tolC growth inh
O=C(Nc1ccccc1)C1=C(O)CC(c2ccoc2)CC1=Nc1ccccc1 (stereo not drawn)
  1 | 2.6 | 3.0% | -0.8 | 35.4
CCc1nc(N2CCCCC2)c2oc3ccccc3c2n1
  1.03 | 2.0 | 14.0% | 3.3 | 100.0*
COC(=O)c1ccc2c(c1)N(Cc1nc(-c3ccc(Cl)cc3)oc1C)C(=O)C1CCCN21 (stereo not drawn)
  1.02 | -4.8 | 11.0% | 20.7 | -2.4
O=C1OC(c2ccc(Br)cc2)=N/C1=C\N1CCCCC1
  1.1 | -7.0 | 9.0% | -16.6 | -10.5
CCCOc1ccc(C2/C(=C(/O)c3ccc(F)cc3)C(=O)C(=O)N2CCCN(C)C)cc1 (stereo not drawn)
  1.14 | 6.2 | 5.0% | 13.9 | -7.4
CCn1c(Cc2ccccc2)nnc1SCC(=O)Nc1ccc(S(N)(=O)=O)cc1
  1.03 | 1.7 | 2.0% | 12.2 | 13.3
O=C(CSc1nc(O)cc(=O)[nH]1)C1CC1
  1.07 | -1.2 | 1.0% | 6.8 | -11.5
COCCNC(=O)C1CCCN(c2ncccn2)C1 (stereo not drawn)
  1 | -6.0 | 3.0% | 7.5 | -21.3
CCOC(=O)C1CCN(Cc2ccc(OC)c(C)c2OC)CC1
  0.98 | 2.2 | 9.0% | 9.6 | 9.1
O=C(Cn1c(=O)n(Cc2ccco2)c(=O)c2ccccc21)Nc1cccc(Cl)c1
  1.05 | 4.3 | 6.0% | 7.7 | 50.3
CCS(=O)(=O)Nc1ccc(-c2ccc(NS(=O)(=O)CC)c(OC)c2)cc1OC
  1.04 | -9.5 | 6.0% | 6.6 | -8.1
COc1cc2c(cc1OC)CN(C(=O)CCCN1C(=O)c3ccccc3C1=O)CC2
  1.03 | 2.9 | 3.0% | 19.3 | 5.0
c1ccc(OCCCc2nc(-c3ccccn3)no2)cc1
  1.05 | 3.7 | 1.0% | 5.8 | 17.9
